Screens deposited in PubChem BioAssay by several laboratories.
Vif TR-FRET: inhibitors of Vif binding to APOBEC3G peptide, primary screen, biochemical, TR-FRET, GST-Vif 1-94, biotin-A3G peptide, dose response retest (AID 1117319); TR-FRET GST-Vif / biotin-A3G peptide binding; higher % means a stronger effect; test concentration not given here; strong numbers were not always called active; inhibition, %, or IC50 in µM where a hit was titrated; 260,000 compounds, 0.57% hits;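 active = above the screen mean plus three standard deviations and confirmed in dose response; inconclusive = results disagree or hit not tested in dose response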;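 also: Vif residues 1-94 fused to GST binding biotinylated APOBEC3G peptide 110-148; 0% = full assay without inhibitor and 100% = GST in place of GST-Vif; retest series ran down from 100 µM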
ALR inh: inhibitors of human sulfhydryl oxidase ALR | P55789 | purified ALR, DTT oxidation, H2O2 HRP-luminol luminescence | inhibition, % (no concentration beside the values) | 290,000 compounds, 3.8% hits | AID 485317;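 active = mean and each replicate at 75% or more; inconclusive = only one of the two met; inactive = neither met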;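 also: stock transfer was 7.5 nL into about 7.5 µL; 0% = neutral wells and 100% = wells with inactivated enzyme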
Target sequence (P55789 whole entry, looked up): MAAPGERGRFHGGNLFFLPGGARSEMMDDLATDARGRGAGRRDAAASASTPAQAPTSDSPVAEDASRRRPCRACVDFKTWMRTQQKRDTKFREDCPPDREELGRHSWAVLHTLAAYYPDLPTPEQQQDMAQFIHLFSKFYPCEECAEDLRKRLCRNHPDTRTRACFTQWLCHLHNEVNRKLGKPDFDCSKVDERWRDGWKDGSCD
Ecoli growth: blocks Escherichia coli growth; OD600, 23 h; active compounds read low; 330,000 compounds, 0.21% hits; OD600 absorbance (no concentration beside the values);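 active = OD600 absorbance below the run mean of sample wells minus 3.6 SD, in any replicate, cut at about 0.56 in these data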;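 also: stock transfer was 300 nL into about 60 µL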
HNF4A DNA FP: change in binding of human HNF4 alpha to DNA. P41235. HNF4a-FITC DNA binding, fluorescence polarization, 1 h. activity change, % at 10 µM. 360,000 compounds, 0.3% hits; in the data active = activity change above about 30%, passing the limit was not always enough;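 also: controls were the assay level and a saturating level of protein; the project sought stronger binding though the title names inhibitors; some compounds called inactive have numbers as strong as hits; positive values seem to mean higher polarization but the record does not say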
FGF22 binding: binders of recombinant human FGF22 by thermal shift. 340,000 compounds, 1.5% hits. SYPRO orange fluorescence; percent of sucrose octasulfate shift, DMSO zero. Q9HCT0. AID 651658. calls only at 9.99 µM;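 active = melting point raised past a set limit in the mean and every replicate; inconclusive = no clear call; three in four hits are not shown here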
Target sequence (Q9HCT0 whole entry, looked up): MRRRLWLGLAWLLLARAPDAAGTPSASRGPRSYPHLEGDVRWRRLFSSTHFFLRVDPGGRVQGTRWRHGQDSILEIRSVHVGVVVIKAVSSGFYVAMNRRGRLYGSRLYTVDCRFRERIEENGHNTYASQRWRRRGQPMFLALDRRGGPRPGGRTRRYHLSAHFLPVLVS
Ecoli rRNA inh: inhibitors of bacterial rRNA selective over humanized ribosomes | GFP signal change (wild-type ribosome), % (no concentration beside the values) | 350,000 compounds, 1.6% hits | E. coli WT GFP vs humanized-ribosome RFP mutants, fluorescence, 24 h; active compounds read low; DMSO median 0, no signal -100;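 active = significant combined selectivity score with lowered wild-type GFP, culture density cut under 30%, mutant RFP and density less affected; inactive = any of these conditions unmet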; also: one replicate is shown; some compounds called inactive have numbers as strong as hits
MLL AF4-AF9 inh: blocks AF4 peptide binding to human AF9; 350,000 compounds, 0.47% hits; P42568; inhibition, % at 10 µM; AlphaScreen, biotin-AF4 peptide binding to FLAG-AF9;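 active = every replicate reaching a set inhibition limit, whatever the replicate mean, cut at about 25% in these data; inconclusive = mean inhibition reaches that limit but some replicates miss it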;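 also: 0% = plate neutral control median and 100% = total signal loss; the record names both 10 and 1 µM as test concentration; the first replicate is given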
Target sequence (P42568 whole entry, looked up): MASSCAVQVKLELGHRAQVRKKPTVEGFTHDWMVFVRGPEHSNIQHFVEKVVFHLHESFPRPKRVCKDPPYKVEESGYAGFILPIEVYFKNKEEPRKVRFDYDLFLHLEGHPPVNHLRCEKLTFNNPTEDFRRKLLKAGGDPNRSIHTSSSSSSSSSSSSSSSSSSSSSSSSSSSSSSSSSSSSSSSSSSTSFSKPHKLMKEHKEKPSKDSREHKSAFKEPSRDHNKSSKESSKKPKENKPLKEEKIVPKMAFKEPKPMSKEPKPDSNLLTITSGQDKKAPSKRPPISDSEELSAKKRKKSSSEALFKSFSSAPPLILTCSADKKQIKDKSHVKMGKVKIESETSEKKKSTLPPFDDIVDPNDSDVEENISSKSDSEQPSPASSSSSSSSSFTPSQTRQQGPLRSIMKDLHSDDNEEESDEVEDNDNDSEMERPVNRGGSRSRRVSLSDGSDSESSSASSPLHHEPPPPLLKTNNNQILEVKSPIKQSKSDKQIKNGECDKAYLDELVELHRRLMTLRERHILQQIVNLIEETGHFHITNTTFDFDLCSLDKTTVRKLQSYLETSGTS
Ecoli rRNA inh OD600: also measured in Ecoli rRNA inh; calls as there; OD600 change, %; measured here: OD600 growth;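 optical density of the mix in the first replicate; 0 = DMSO median and -100 = no signal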
Ecoli rRNA inh RFP: also measured in Ecoli rRNA inh; calls as there; RFP signal change, %; measured here: RFP humanized mutant strains;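 first replicate; 0 = DMSO median and -100 = no signal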
Starred values were filed as active, the others as inactive; i = inactive; ? = inconclusive; . = no result given; & = joins results of further samples. An excerpt; count on the stated rates, not on these rows.

SMILES	Vif TR-FRET	ALR inh	Ecoli growth	HNF4A DNA FP	FGF22 binding	Ecoli rRNA inh	Ecoli rRNA inh OD600	Ecoli rRNA inh RFP	MLL AF4-AF9 inh
CC(=O)c1cccc(NC(=O)N2C3CCC2CC(O)(c2cccnc2)C3)c1 (centres undefined)	-5%	3	0.71	0.9	.	.	.	.	.
CC(C)c1nnc(NC(=O)c2nc(S(=O)(=O)Cc3ccccc3)ncc2Cl)s1	.	98*	.	4.5	i	10	5	0.3	-13
N#Cc1c[nH]n2c(=O)c3c(nc12)CCC3	-2%	-2	0.64	1.4	i	9	-2	-2.7	-2.4
O=c1nc2ccccn2c2ccc(S(=O)(=O)N3CCCCC3)cc12	.	-28	0.69	1.1	i	3	15	-0.4	-2.6
Nc1nsc2ccccc12	3%	-7	0.61	2.1	i	3	-5	1.0	-27
COC(=O)C[C@H]1CC[C@@H]2[C@H](COc3ccc(NC(=O)c4cccc(Cl)c4)cc3C(=O)N2C)O1	.	.	.	.	i	-2	1	2.3	2.1
CC(=O)Nc1ccc(CN(C)c2c(C)nc3ccc(C(=O)N4CCN(C(C)=O)CC4)cn23)cc1	.	.	.	1.2	i	13	1	-1.7	0.1
Cc1ccc(S(=O)(=O)N(C)C[C@H]2OCCCC[C@H](C)Oc3ccc(NS(C)(=O)=O)cc3C(=O)N([C@H](C)CO)C[C@@H]2C)cc1	.	.	.	.	i	-7	-8	0.5	-0.8
C[C@H]1CN([C@@H](C)CO)C(=O)c2cc(-c3ccc(F)cc3)cnc2O[C@H]1CN(C)CC1CCCC1	.	.	.	.	i	3	11	-2.4	-3.9
NC1=NC(=Nc2ccc(Cl)cc2)c2ccccc21	1%	-2	0.7	2.9	i	-3	2	0.8	4.8
CC(C)N(CCc1ccncc1)C(=O)Nc1ccc(Cl)c(Cl)c1	2%	-12	0.71	-0.6	i	-57	-77	-15	-2.5
Cc1ccc(CO/N=C/c2c(O)cc(C)oc2=O)cc1	1%	-9	.	0.9	.	11	12	0.1	-3.1
CC1CC(C)CN(C(=O)C(Cc2ccccc2)NC(=O)c2ccccc2)C1 (centres undefined)	9%	-8	0.63	4.0	i	-10	-24	-2.3	0.2
COC(=O)C1CCN(C(=O)N2CCOCC2)CC1	4%	-2	0.66	-3.3	.	4	9	-0.6	.
Cc1ccccc1CC1(CO)CCCN(C(=O)c2ccccc2N(C)C)C1 (centres undefined)	0%	4	0.66	3.1	i	-20	-21	0.2	0.6
CCOc1ccc(C(=O)Nc2ccc(CN3CCOCC3)cc2)cc1Cl	.	-10	0.69	-1.5	i	13	2	-1.3	-1.1
CC(C)c1nc(SCc2c(F)cccc2Cl)c2c(=O)n(C)c(=O)n(C)c2n1	0%	-12	0.81	0.6	.	.	.	.	.
C=CCn1sc(=N)c(C#N)c1N	-2%	99*	0.7	20	.	.	.	.	.
CC(C)NC(=O)N1CC2(C1)[C@@H](c1ccccc1)[C@@H](CO)N2C(=O)c1ccccn1	.	.	.	.	i	-1	0	-5.3	-2.3
C[C@@H]1CN([C@@H](C)CO)C(=O)c2c(c3ccccc3n2C)-c2ccccc2CO[C@H]1CN(C)CC1CC1	.	.	.	.	i	6	8	-2.0	-6.2
O=C(CN1C(=O)S/C(=C\c2cccs2)C1=O)Nc1ccc(O)cc1C(=O)O	.	73	0.67	-0.1	i	6	19	0.8	-3.3
COc1ccccc1-c1ccc([C@@H]2[C@@H](C#N)N(C(=O)C3CC3)[C@H]2CO)cc1	.	.	.	.	i	3	0	-0.3	0.9
COc1cc(C(=O)OCC(C)=O)c([N+](=O)[O-])cc1OC	17%	-14	0.68	3.4	i	0	-7	-4.8	-1.9
CO[C@H]1CN(C)C(=O)c2cccc(C#N)c2OC[C@@H]2O[C@H](CC[C@H]2OC)CCN(C)C(=O)[C@@H]1C	.	.	.	.	i	4	6	-2.1	1.1
Cc1cc(N2CCN(Cc3nc(-c4ccc(F)cc4)oc3C)CC2)cc(C)n1	3%	-3	0.7	-4.9	i	11	-11	1.5	1.6
CCNC(=S)NNC(=O)Cc1ccccc1	-1%	9	0.73	2.3	.	.	.	.	.
CC1(C)Cc2nc3nc(SCC(=O)Nc4ccccc4)nc(N)c3cc2CO1	-6%	1	0.66	2.6	i	35	16	11	-2.2
C[C@@H]1CCCCO[C@@H](CN(C)C(=O)CCC(F)(F)F)[C@@H](C)CN([C@@H](C)CO)C(=O)c2cc(NC(=O)C3CCCCC3)ccc2O1	.	.	.	.	i	2	5	0.3	-0.7
COc1ccccc1CNC(=O)C[C@H]1CC[C@@H]2[C@H](COC[C@@H](O)CN2Cc2cccc(-c3ccncc3)c2)O1	.	.	.	.	i	-9	-5	-4.9	0.6
COc1ccccc1CC(=O)N1CCCC(CCC(=O)NCc2ccccc2F)C1 (centres undefined)	0%	.	0.67	0.5	i	-1	-5	5.6	1.5

Arranged by value in ALR inh (lowest first): 3 of the compounds above.
SMILES	Vif TR-FRET	ALR inh	Ecoli growth	HNF4A DNA FP	FGF22 binding	Ecoli rRNA inh	Ecoli rRNA inh OD600	Ecoli rRNA inh RFP	MLL AF4-AF9 inh
COc1cc(C(=O)OCC(C)=O)c([N+](=O)[O-])cc1OC	17%	-14	0.68	3.4	i	0	-7	-4.8	-1.9
CCOc1ccc(C(=O)Nc2ccc(CN3CCOCC3)cc2)cc1Cl	.	-10	0.69	-1.5	i	13	2	-1.3	-1.1
C=CCn1sc(=N)c(C#N)c1N	-2%	99*	0.7	20	.	.	.	.	.

(listing goes on)
SMILES	Vif TR-FRET	ALR inh	Ecoli growth	HNF4A DNA FP	FGF22 binding	Ecoli rRNA inh	Ecoli rRNA inh OD600	Ecoli rRNA inh RFP	MLL AF4-AF9 inh
CC(C)(C)[S@@](=O)N1Cc2cc(C(=O)NCc3ccncc3)nc(-c3cccc(-c4cccc(C#N)c4)c3)c2[C@H]1CCO	.	.	.	.	i	5	-10	-1.5	5.5
NC(c1ccncc1)c1ccc(Cl)cc1 (centres undefined)	4%	.	.	0.4	i	10	7	-0.3	0.6
C[C@@H]1CN([C@H](C)CO)C(=O)c2cc(NS(=O)(=O)c3ccc(Cl)cc3)ccc2O[C@@H](C)CCCCO[C@H]1CN(C)Cc1ccc(C(F)(F)F)cc1	.	.	.	.	i	1	-2	14	3.2
COc1cc(NC(=O)C2CC(c3cccc(OC)c3OC)=NO2)cc(OC)c1OC (centres undefined)	-8%	1	0.74	6.0	.	.	.	.	.
O=C(NCC1CCCN(C(=O)c2cscn2)C1)c1ccccc1Cl (centres undefined)	11%	.	0.65	-5.5	i	13	5	-0.7	-1.8
CCOC(=O)c1cc2c(=O)n3ccccc3nc2n(Cc2ccc(Cl)cc2)c1=N	.	.	0.73	17	i	10	6	2.5	0.0
C[C@H]1CN([C@@H](C)CO)C(=O)c2cc(C#CC3CCCCC3)cnc2O[C@@H]1CN(C)S(=O)(=O)c1cccc(F)c1	.	.	.	.	i	3	-1	-1.3	32*
CCCCC(=O)N/N=C(C)/C=C/c1ccccc1F	.	.	.	1.7	i	7	6	2.8	2.5
C[C@@H]1CN([C@@H](C)CO)C(=O)CCCn2nncc2CO[C@H]1CN(C)Cc1cccnc1	.	.	.	0.5	i	24&0	15&-2	0.9&0.0	0.0&-0.5&0.5
CCN(CC)c1ccc(CN(C(=O)c2cc(OC)c(OC)c(OC)c2)C2CCS(=O)(=O)C2)cc1 (centres undefined)	?	94*	0.75	-0.7	.	-2	-16	4.7	.
CC(C)Oc1ccc(CNCCC2(C(C)C)CCOC(C)(C)C2)cc1 (centres undefined)	-4%	-22	0.66	-2.4	.	.	.	.	.
COC(=O)C[C@@H]1CC[C@@H](NS(=O)(=O)c2ccccc2OC)[C@@H](CO)O1	.	.	.	6.6	i	11	10	1.8	-4.2
CC1CCCC(C)N1C(=O)COC(=O)C(Cc1ccccc1)NC(=O)c1cccs1 (centres undefined)	6%	-4	0.69	-4.3	i	3	-4	-1.0	-3.5
CC(C)(C)NC(=O)Cn1nnc(-c2ccccc2NC(=O)c2cnccn2)n1	3%	-4	0.7	0.8	.	.	.	.	.
CN(c1ccc(C(=O)NCc2ccncc2)cc1)S(C)(=O)=O	6%	2	0.7	3.7	.	.	.	.	.
CC(C)[C@@H](C(=O)N[C@@H](C(=O)O)c1ccccc1)N1C(=O)N2CCc3c([nH]c4ccccc34)[C@@]2(C)C1=O	.	5	0.7	-0.8	i	.	.	.	0.5
Cc1cc(C(F)F)n2nc(C(=O)O)nc2n1	7%	.	0.67	-2.5	.	.	.	.	.
COCCNC(=S)Nc1ccccn1	0%	0	0.65	1.9	i	2	7	-0.7	-6.2
COc1ccc2[nH]c(C)c(CCN(Cc3cccs3)C(=S)Nc3ccccc3)c2c1	14%	-9	0.76	-3.0	i	18	6	2.1	7.9
COc1ccccc1CC(=O)N1CCN(c2cccc(C(F)(F)F)c2)CC1	-1%	0	0.64	0.0	.	.	.	.	.
CC1(C)NC(=O)N(CC(=O)N2CCN(S(=O)(=O)c3ccccc3C(F)(F)F)CC2)C1=O	5%	.	0.64	-1.7	i	5	13	1.1	7.3
O=C(Cc1ccncc1)NCC[C@H]1CC[C@@H](NS(=O)(=O)c2ccccc2Cl)[C@@H](CO)O1	.	.	.	.	i	1	12	0.3	-0.2
CSc1nc2cc(S(=O)(=O)N3CCOCC3)ccc2s1	2%	-71	0.65	-9.6	.	.	.	.	.
O=C(c1cc(C2CC2)nc2ccc(Br)cc12)N1N=C(C(F)F)CC1(O)C(F)F (centres undefined)	.	-2	0.64	-0.4	.	.	.	.	.
O=C(CSCC(=O)Nc1ccc2ccccc2c1)NCc1ccccc1	2%	-11	0.7	-3.1	.	.	.	.	.
Cc1ccc(S(=O)(=O)NCCC(=O)NCC(c2cccs2)N(C)C)cc1 (centres undefined)	-4%	-4	0.68	2.1	i	1	8	-0.3	0.1
Cn1nnnc1SCCNCc1ccccc1OCc1ccc(Cl)cc1	-3%	-1	0.65	7.0	.	.	.	.	.
C[C@H](CO)N1C[C@H](C)[C@@H](CN(C)CC2CC2)Oc2ccc(NC(=O)Nc3ccc(F)cc3)cc2CC1=O	.	.	.	.	i	9	-2	2.7	4.6
O=[N+]([O-])c1cc(S(=O)(=O)N2CCCC2)ccc1N/N=C/c1ccncc1	-9%	-10	.	1.3	.	.	.	.	.
CCC(=O)NC[C@@H]1[C@@H](c2ccccc2)[C@@H](CO)N1C(=O)C1CCC1	.	.	.	.	i	0	-1	1.7	-1.5
CN(C)c1ccc(C2/C(=C(/O)c3ccccc3)C(=O)C(=O)N2CCCC(=O)O)cc1 (centres undefined)	-5%	.	0.69	-0.3	i	6	3	-2.2	1.3
COc1ccc(-c2nc3ccc(C)cn3c2CC(C)(C)C)cc1OC	.	.	.	1.9	i	-32	-52	-9.7	3.4
CC(C)(C)[S@@](=O)N1Cc2cc(C(=O)NCCc3ccncc3)nc(-c3cccc(-c4cccnc4)c3)c2[C@H]1CCO	.	.	.	.	i	9	6	3.6	-3.0
CN(c1ccccc1)S(=O)(=O)c1ccc(NC(=O)c2ccccc2C(=O)O)cc1	.	-2	0.65	-0.5	i	6	3	-1.5	-3.2
Cc1ccc(N(CC(O)Cn2c3ccccc3c3ccccc32)S(C)(=O)=O)c(C)c1 (centres undefined)	-3%	-13	0.71	3.0	.	.	.	.	.
CN1C(=S)SC(C)(NO)C1(C)C (centres undefined)	0%	-4	0.67	4.4	i	17	10	-7.9	4.0
Cc1noc(C)c1NC(=O)Nc1cccc2c1O[C@H](CN(C)C(=O)Nc1c(C)noc1C)[C@H](C)CN([C@H](C)CO)C2=O	.	.	.	.	i	5	11	-1.9	-2.2
